A488 autofl – compound autofluorescence in A488 spectral region; compound autofluorescence, A488 spectral region, dye equivalency; active compounds read high; max dye equivalency, M; 59,000 compounds, 0.1% hits; AID 591; active = above 10 nM dye equivalent; inconclusive = 1 to 10 nM; inactive = 1 nM or less; about half of its hits are not listed in these tables;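 also: highest value over a series up to 38 µM; compound alone in buffer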
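Compounds pin-transferred into 100 mM Tris buffer, pH 8.0, incubated 15 min at room temperature, then imaged with 480 nm excitation/540 nm emission filters. Fluorescence converted to Alexa 488 dye-equivalent concentration via an on-plate six-point A488 standard curve.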
A647 fluor – compound fluoresces in the A647 spectral region; Compound fluorescence, A647 channel (570/671 nm), Tris buffer; max dye-equivalent concentration, M; 59,000 tested, under 10 active; active means above 1 µM dye equivalent; inconclusive means 0.1 to 1 µM; inactive means 0.1 µM or less;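 also: values scaled relative to a standard on each plate; highest value over a series up to 38 µM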
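Fluorescence read (570 nm ex, 671 nm em) after 15 min RT incubation of compounds in 100 mM Tris buffer, pH 8.0; values expressed as dye-equivalent concentration against a six-point A647 standard series on each plate.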
TSHR agonist – agonists of human thyroid stimulating hormone receptor. P16473. HEK293-CNG-TSHR cells (CNG channel as cAMP sensor), membrane potential dye, cAMP. Potency, µM (doses to about 57.1 µM), for inactives: top-dose activation, most hits filed as activators. 73,000 compounds, 0.48% hits. AID 926; active = well fitted activation curve of enough size with the parental cells flat; inconclusive = any curve in the parental cells; inactive = parental cells flat and receptor cells flat or falling; also: potency is read from the fitted curve at half-maximal effect; % of control where 0% means no effect; weak receptor curves with flat parental cells got no call and are not listed
Target sequence (P16473 whole entry, looked up): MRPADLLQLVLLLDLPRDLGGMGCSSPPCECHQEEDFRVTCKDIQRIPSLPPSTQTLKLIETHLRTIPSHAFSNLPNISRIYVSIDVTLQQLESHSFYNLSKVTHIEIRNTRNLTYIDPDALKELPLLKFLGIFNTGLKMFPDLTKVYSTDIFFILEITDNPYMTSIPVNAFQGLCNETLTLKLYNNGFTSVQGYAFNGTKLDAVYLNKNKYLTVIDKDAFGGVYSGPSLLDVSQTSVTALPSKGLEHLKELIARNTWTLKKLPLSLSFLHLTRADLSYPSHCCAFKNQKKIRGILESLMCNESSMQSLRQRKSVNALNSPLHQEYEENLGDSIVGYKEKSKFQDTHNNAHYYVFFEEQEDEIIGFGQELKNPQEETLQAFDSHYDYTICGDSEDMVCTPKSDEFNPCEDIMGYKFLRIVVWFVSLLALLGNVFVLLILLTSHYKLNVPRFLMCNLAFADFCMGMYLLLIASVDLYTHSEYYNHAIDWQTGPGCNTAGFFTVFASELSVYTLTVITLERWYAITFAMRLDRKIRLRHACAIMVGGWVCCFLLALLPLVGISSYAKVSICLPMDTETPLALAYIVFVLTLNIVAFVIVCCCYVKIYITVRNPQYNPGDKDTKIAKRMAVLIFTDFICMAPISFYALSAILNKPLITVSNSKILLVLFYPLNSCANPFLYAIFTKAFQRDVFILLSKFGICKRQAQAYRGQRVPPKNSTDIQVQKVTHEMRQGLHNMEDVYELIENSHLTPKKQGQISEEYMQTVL
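cAMP rise detected as CNG-channel membrane depolarization by fluorescent dye (emission 590 nm), 30 min after compound, following 60 min dye loading containing 100 uM RO 20-1724 at room temperature. Cells: TSHR/CNG HEK 293, with parental CNG HEK 293 as control.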
Resorufin fluor – compound fluoresces in the resorufin spectral region. Compound fluorescence, resorufin region 547/598 nm, buffer; active compounds read high. max dye-equivalent concentration, M. 59,000 compounds, 0.04% hits. AID 588; active = above 10 nM dye equivalent; inconclusive = 1 to 10 nM; inactive = 1 nM or less; a few of its hits are not listed in these tables; also: highest value over a series up to 38 µM
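Tris 100 mM pH 8.0; compound added, 15 min RT; CCD imager read, ex 547 nm/em 598 nm; signal normalized to resorufin standard curve (six concentrations per plate) as dye-equivalent concentration.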
AID923 – qHTS Assay for Allosteric/Competitive Inhibitors of Caspase-1: Spectroscopic Profiling in AFC Spectral Region | compound fluorescence, AFC spectral region (405/520 nm); almost no hit is shown here | Potency, µM (titrated, usually from 57.5 µM), for the others: at the top dose fluorescence increase, most hits filed as activators | 75,000 compounds, 1.1% hits; active = well fitted activation curve with a large enough effect; inconclusive = small, poorly fitted or top-dose-only effect;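 also: potency is read from the fitted curve at half-maximal effect; 0% is about no effect; scaled to a free AFC standard on each plate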
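Compound autofluorescence profiled at 405 nm ex/520 nm em during kinetic caspase 1 run (50 nM enzyme, 5 uM Ac-WEHD-AFC, HEPES pH 7.5, 10 mM DTT). Titration up to 57 uM; baseline from regression intercept, normalized to AFC standard curve.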
Active calls of the source: *; i = inactive; ? = inconclusive; . = not tested or not shown; [ ] = dose if it differs, or a comment. Only part of the results is shown; rates above refer to the full screens.

Every second line gives: A488 autofl	A647 fluor	TSHR agonist	Resorufin fluor	AID923
- CC1(C)CC(=O)C2=C(C1)OC(N)=C(C#N)C2c1ccccc1OC(=O)N1CCOCC1 (stereo not drawn)
→ i	1e-09	0%	i	-0.7%
- Cc1ccc(C(O)c2nccn2C)o1 (stereo not drawn)
→ i	5.7e-09	6%	i	5.3%
- Cc1nc(NCCO)c2nc(-c3ccccc3)n(CC3CCN(C)CC3)c2n1
→ .	.	6%	.	1.7%
- COc1cccc(NC(=O)N2CCN(c3cccc(C)c3C)CC2)c1
→ i	1.6e-08	?	i	-6.4%
- Cc1occc1-c1nnc(SCC(=O)N2CCN(c3ccccc3)CC2)n1C
→ i	1e-09	8%	i	2.1%
- CC1Cn2c(nnc2-c2ccc(F)cc2)S1 (stereo not drawn)
→ .	.	?	.	3.3%
- Cc1ccc(C(=O)NCCCCNC(=O)c2ccc(C)o2)o1
→ .	.	?	.	0.0%
- O=C(c1ccco1)N1CCC2(CCCN(Cc3ccccc3)C2)CC1
→ i	1e-09	1%	i	-0.7%
- C=CCn1c(=O)c2ccccc2n2c(SCC(=O)NCCc3ccccc3)nnc12
→ i	1e-09	2%	i	0.4%
- CC(C)OC(=O)C(C#N)c1nc2ccccc2nc1N1CCN(Cc2ccc3c(c2)OCO3)CC1 (stereo not drawn)
→ i	4.7e-08	.	i	.
- O=C(CCNc1ccc(Cl)c(C(F)(F)F)c1)c1ccco1
→ i	3.9e-09	7%	i	-1.4%
- CC(C)(C)C1(C)OC(C(N)=O)C(C(N)=O)O1 (stereo not drawn)
→ .	.	0%	.	-0.3%
- CN(C)c1nc(N)nc(-c2cccnc2)n1
→ .	.	?	.	2.6%
- O=C(Cc1cccs1)N1CCC(c2nc3c(nnn3Cc3ccccc3Cl)c(=O)[nH]2)CC1
→ i	2.6e-09	4%	i	1.1%
- c1ccc(-c2ccc(C(c3ccccc3)n3ccnc3)cc2)cc1 (stereo not drawn)
→ i	1.1e-08	.	i	0.2%
- COCCNc1nc(-c2ccccc2OC)nc2ccccc12
→ i	5.1e-09	20%	i	-1.2%
- CCOC(=O)NC(=O)CSc1ccccn1
→ i	1e-09	0%	i	-1.5%
- Cc1cc(NC(=O)CSc2nc(C(C)C)nc3sc4c(c23)CCCC4)no1
→ i	5.4e-08	?	i	-2.7%
- COC(=O)NC(c1cccc(C)c1)C(C(C)=O)C(=O)OC (stereo not drawn)
→ .	.	-5%[11.4 µM]	.	4.4%[11.5 µM]
- CCc1nc2ccccc2n1Cc1ccc(OC)c(OC)c1
→ i	3.6e-08	?	i	3.6%
- COc1ccc(C)cc1NC(=O)CSc1nnc(-c2ccccn2)n1Cc1ccco1
→ i	9e-09	?	i	-1.3%
- CCOc1nc(NCCc2ccc(OC)c(OC)c2)nc(NC(C)(C)CO)n1
→ i	1e-09	12%	i	1.0%
- O=C(CSc1nnc(C2COc3ccccc3O2)o1)Nc1nccs1 (stereo not drawn)
→ .	.	10%	.	-0.4%
- COc1cccc(NC(=O)c2ocnc2C)c1
→ i	2e-09	0%	i	-1.3%
- O=C(CCc1nc2ccccc2[nH]1)Nc1ccc(F)cc1
→ i	8.6e-09	-3%	i	-0.6%
- Cc1ccc2nsnc2c1S(=O)(=O)N1CCN(C(=O)C2CCCO2)CC1 (stereo not drawn)
→ i	1e-09	1%	i	1.3%
- COc1ccc(OC)c2[nH]c(=O)c(CCNC(=O)C(C)C)cc12
→ .	.	?	.	-0.1%
- N/C(CCCN1CCCCC1)=N/O
→ i	6.9e-08	.	i	.
- COc1ccc(C(=O)N2CCC3(CCCN(c4ccccn4)C3)CC2)cc1
→ i	1e-09	?	i	2.7%
- CCOC(=O)CC1=C(C(=O)OCC)C(c2cc(OC)c(OC)cc2OC)C(C#N)=C(N)O1 (stereo not drawn)
→ i	6.5e-08	.	i	.

Some entries already given with just A647 fluor, A488 autofl and AID923:
SMILES | A647 fluor | A488 autofl | AID923
COc1ccc(C(=O)N2CCC3(CCCN(c4ccccn4)C3)CC2)cc1 | 1e-09 | i | 2.7%
CC(C)OC(=O)C(C#N)c1nc2ccccc2nc1N1CCN(Cc2ccc3c(c2)OCO3)CC1 (stereo not drawn) | 4.7e-08 | i | .

The main list resumes; the 3 compounds before the break are reprinted first.
Every second line gives: A488 autofl	A647 fluor	TSHR agonist	Resorufin fluor	AID923
- N/C(CCCN1CCCCC1)=N/O
→ i	6.9e-08	.	i	.
- COc1ccc(C(=O)N2CCC3(CCCN(c4ccccn4)C3)CC2)cc1
→ i	1e-09	?	i	2.7%
- CCOC(=O)CC1=C(C(=O)OCC)C(c2cc(OC)c(OC)cc2OC)C(C#N)=C(N)O1 (stereo not drawn)
→ i	6.5e-08	.	i	.
- Nc1cc(C(Cl)=C(Cl)Cl)c(S(N)(=O)=O)cc1S(N)(=O)=O
→ i	4.6e-08	-13%[25.6 µM]	i	-2.0%
- CC(C)NC(=O)N1CCC2(CC1)CCN(S(=O)(=O)c1ccccc1)CC2
→ i	1.7e-09	4%	i	7.0%
- O=C(O)c1cc(NCc2c(F)cccc2Cl)ccc1N1CCOCC1
→ i	1e-09	?	i	-0.3%
- Cc1cc(NC(=O)c2cnn3c(C(F)F)cc(-c4ccccc4)nc23)no1
→ i	2e-08	0%	i	1.7%
- COc1ccc(C(=O)NCCSc2ccccn2)cc1
→ .	.	1%	.	0.9%
- Cc1c(C(=O)O)oc2ccc(S(=O)(=O)NCc3ccccc3)cc12
→ i	3.9e-09	-1%	i	-2.7%
- O=C(NC1CCCCC1)c1cc(-c2ccco2)on1
→ i	1.9e-09	0%	i	0.7%
- Cc1nc2sc(C(c3ccco3)N3CCC(C)CC3)c(O)n2n1 (stereo not drawn)
→ .	.	?	.	-1.3%
- CCCCNC(=O)CCC(=O)Nc1ccc2nc(N3CCOCC3)cc(C)c2c1
→ i	1.5e-09	6%	i	-1.7%
- COc1cccc(OC)c1-c1nn2c(-c3ccccc3Cl)nnc2s1
→ i	1e-09	.	i	.
- CCOC(=O)Cc1nnc(NC(=O)CC)s1
→ i	2.6e-08	-4%	i	0.3%
- CCCn1cc(SCC(=O)Nc2nnc(C)s2)c2ccccc21
→ .	.	?	.	-0.9%
- C=CCNc1nc(-c2c(C)nc3sccn23)cs1
→ i	1e-09	1%	i	2.4%
- Cc1cccc(C)c1NC(=O)C1(NC(=O)C2CCCN2C(=O)OC(C)(C)C)CCCCC1 (stereo not drawn)
→ i	2e-08	3%	i	0.0%
- O=C(c1cc2ccccc2oc1=O)N(Cc1ccco1)C1CCS(=O)(=O)C1 (stereo not drawn)
→ i	1.3e-08	5%	i	-0.5%
- Cc1ccc(C2C(C#N)=C(N)Oc3nc(-c4ccccc4)[nH]c32)o1 (stereo not drawn)
→ i	1e-09	.	i	-1.0%
- O=C1Cc2ccccc2C(=O)N1CCc1ccccc1
→ .	.	0%	.	4.0%
- CCOC(=O)N1CCN(C(=O)CS(=O)(=O)c2cn(Cc3ccccc3C)c3ccccc23)CC1
→ i	1e-09	.	i	-0.1%
- Cc1ccc(S(=O)(=O)c2c(C)nn(C(C)(C)C)c2OC(=O)C(C)(C)C)cc1
→ i	2.5e-08	?	i	0.9%
- Cc1cc(C)nc(N2CCC(C(=O)NC3CCCc4ccccc43)CC2)n1 (stereo not drawn)
→ i	3.7e-08	3%	i	0.9%
- Cn1cccc1Cc1nnc(SCC(=O)Nc2cccc(F)c2)n1CCc1ccccc1
→ .	.	10%	.	-0.3%
- CC1Cc2ccccc2C(=O)N1 (stereo not drawn)
→ .	.	?	.	0.8%
- COc1ccc(S(=O)(=O)N(C)CC(=O)N2CCC(C(N)=O)CC2)cc1
→ i	6.5e-09	.	i	-0.9%
- CCOC(=O)c1c(C)n(C)c2ccc(OC(=O)c3ccoc3)cc12
→ i	1e-09	0%	i	-0.5%
- COc1ccc(N2C(=O)C3CCCN3C2c2ccc(F)cc2)cc1Cl (stereo not drawn)
→ i	2.1e-09	19%	i	-1.1%
- COc1ccc(Cl)cc1C(=O)Nc1ccccc1N1CCN(C)CC1
→ i	2.5e-08	0%	i	-1.4%
- CCOC(=O)C1CSC(CC(=O)Nc2ccc(Cl)cc2)C(=O)N1 (stereo not drawn)
→ i	3.6e-08	-6%	i	0.8%
- Cc1ccc(S(=O)(=O)NCCCNC(=O)c2ccccc2)cc1
→ i	1e-09	-6%	i	1.5%
- COc1cc(C(N)=O)cc(Br)c1OC
→ i	3e-08	?	i	-0.2%
- COC(=O)C1C(=O)NC(SC)=C(C#N)C1c1ccccc1 (stereo not drawn)
→ i	6.5e-09	-1%	i	-2.1%
- CC(=O)OC[C@H]1O[C@@H](CCO/N=C2/[C@H]3O[C@@H]3[C@@H](O)[C@H]3[C@H]2CCn2c(=O)n(-c4ccccc4)c(=O)n23)C=C[C@@H]1OC(C)=O
→ .	.	-5%[11.4 µM]	.	-6.5%[11.5 µM]
- CC1(C)CC2(CC(C)(C)N1)OC(=O)N1CCc3ccccc3C12C (stereo not drawn)
→ .	.	4%	.	-0.8%
- CC(C)(CC(=O)O)Cc1nc(-c2ccc(Cl)cc2)no1
→ .	.	?	.	-0.5%
- O=C(CCn1cccc1)NC1CCCc2ccccc21 (stereo not drawn)
→ .	.	?	.	-1.4%
- N#Cc1cc(C(=O)c2cc(Br)ccc2O)cn(C2CC2)c1=O
→ i	4.5e-09	-4%	i	0.9%
- O=C(NCc1ccccc1Cl)C1CCN(C(=O)c2sccc2-n2cccc2)CC1
→ .	.	?	.	-0.4%
- CCCCCCC(C)n1[nH]c(=O)c2c(C)cc(=O)[nH]c21 (stereo not drawn)
→ i	1e-09	21%	i	2.8%
- COc1ccc(NC(=O)C2C(=O)N(C)C3(C)CC2c2ccccc2O3)cc1 (stereo not drawn)
→ i	1.8e-08	9%	i	-1.2%
- COc1ccc(C(=O)CSc2nccc(=O)[nH]2)cc1
→ i	1e-09	3%	i	0.7%
- COc1cc(S(=O)(=O)Nc2cccnc2)ccc1F
→ i	2.5e-09	5%	i	-0.6%
- COc1ccccc1-c1ccc2ncnc(N(C)C)c2c1
→ i	1.7e-09	?	i	0.2%
- O=C(C1CCCCC1)N1CCN(c2ccccc2F)CC1
→ i	1e-09	12%	i	-0.5%
- N#Cc1c(NC(=O)c2cc(C3CC3)on2)sc2c1CCC2
→ .	.	8%	.	-1.2%
- CCN(CCCNC(=O)CCc1nc(-c2ccc(C)cc2)no1)c1cccc(C)c1
→ i	8.4e-09	-4%	i	-0.1%
- O=C1CC(SCc2nc3ccccc3[nH]2)C(=O)N1c1cccc(F)c1 (stereo not drawn)
→ i	1e-09	-4%	i	13%
- O=C(Nc1ccc(OC(F)(F)F)cc1)c1cnc2n(c1=O)CCS2
→ .	.	3%	.	1.5%
- COc1cc(S(=O)(=O)Nc2ncccc2C)c(OC)cc1Cl
→ i	5.4e-09	-8%	i	-3.2%
- COCc1nc2ccccc2n1Cc1ccccc1Br
→ i	2e-09	?	i	-5.0%
- O=C(O)CCSc1nnnn1-c1ccccc1
→ i	1e-09	2%	i	1.2%
- CCOC(=O)Nc1cc(C)ccc1OC
→ i	1.2e-08	23%	i	-2.2%
- O=C1CC(C(=O)Nc2ncccn2)C(c2ccccc2)O1 (stereo not drawn)
→ i	2.7e-09	4%	i	-0.1%
- CCOC(=O)Cc1csc(NC(=O)COc2ccccc2OC)n1
→ .	.	-6%	.	-0.4%
- O=c1[nH]c(=O)n(Cc2ccco2)c2c1C(C(F)(F)F)(C(F)(F)F)N=C(c1ccco1)N2
→ i	3.5e-09	.	i	.
- Cc1nnc(Sc2nc(Sc3nnc(C)s3)nc(N3CCN(C)CC3)n2)s1
→ i	3.6e-09	6%	i	2.5%
- CCOc1ccc(CCNS(=O)(=O)c2cnc[nH]2)cc1OCC
→ i	2.1e-09	5%	i	-2.0%

High-throughput results from PubChem BioAssay.
